hNpr1 antagonist = human Npr1 receptor antagonism. P16066. HEK293 hNpr1 GloSensor cGMP, ANP-stimulated luminescence. Potency, µM (titrated, usually from 46.3 µM), for the others: at the highest dose activity change, negative = inhibition, usual class: inhibitors. 76,000 compounds, 1.6% hits. AID 1347048; active = well fitted inhibition curve with a large enough effect; inconclusive = small, poorly fitted or top-dose-only effect; inactive = no such curve, though single readings can be large or run the other way;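 also: nearly all actives have a fitted effect of over 60% in size; nearly all hits also lower the signal before the agonist is added; a reference antagonist and vehicle were the controls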
Target sequence (P16066 whole entry, looked up): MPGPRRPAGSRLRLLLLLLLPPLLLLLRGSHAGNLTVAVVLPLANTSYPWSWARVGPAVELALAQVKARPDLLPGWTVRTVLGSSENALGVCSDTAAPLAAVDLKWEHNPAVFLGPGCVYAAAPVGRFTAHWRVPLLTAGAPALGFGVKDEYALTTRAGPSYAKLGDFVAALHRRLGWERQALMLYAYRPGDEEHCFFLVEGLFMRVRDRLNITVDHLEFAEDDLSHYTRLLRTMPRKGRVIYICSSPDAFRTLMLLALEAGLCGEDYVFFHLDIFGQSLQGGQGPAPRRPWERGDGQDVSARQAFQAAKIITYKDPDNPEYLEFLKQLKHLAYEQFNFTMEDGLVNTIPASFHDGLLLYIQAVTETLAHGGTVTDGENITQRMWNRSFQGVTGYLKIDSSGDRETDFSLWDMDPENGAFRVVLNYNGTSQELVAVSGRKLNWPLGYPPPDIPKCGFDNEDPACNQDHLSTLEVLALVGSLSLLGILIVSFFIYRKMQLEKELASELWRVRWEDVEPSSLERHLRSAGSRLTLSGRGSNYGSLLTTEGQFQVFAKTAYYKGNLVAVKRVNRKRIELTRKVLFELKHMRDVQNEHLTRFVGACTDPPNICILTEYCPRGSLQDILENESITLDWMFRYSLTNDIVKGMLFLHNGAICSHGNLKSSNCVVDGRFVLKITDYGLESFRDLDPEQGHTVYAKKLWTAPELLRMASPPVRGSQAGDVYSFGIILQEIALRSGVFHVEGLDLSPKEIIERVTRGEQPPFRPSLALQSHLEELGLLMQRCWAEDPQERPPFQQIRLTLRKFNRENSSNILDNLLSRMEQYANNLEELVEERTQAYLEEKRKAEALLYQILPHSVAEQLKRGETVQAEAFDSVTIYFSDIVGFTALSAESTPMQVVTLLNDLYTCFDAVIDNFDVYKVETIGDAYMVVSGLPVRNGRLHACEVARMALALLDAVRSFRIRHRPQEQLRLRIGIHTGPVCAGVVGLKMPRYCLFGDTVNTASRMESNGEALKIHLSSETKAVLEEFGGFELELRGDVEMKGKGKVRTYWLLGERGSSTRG
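Compound pre-incubated 30 min at room temperature on GloSensor-loaded HEK293 cells stably carrying hNpr1 and the pGS-40F cGMP biosensor. Stimulation uses hNppA at 0.1 nM final; luminescence is taken at baseline and 20 min post-agonist.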
* marks the source's active call; other numbers are inactive results; ? = inconclusive; [ ] = remark or other dose. % is scaled to controls: 0 for no effect and ±100 for the full control effect; potency is read from the fitted curve at half-maximal effect. This is a subset (hit frequency here may not be typical).

SMILES	hNpr1 antagonist
CCNC(=O)Nc1ccc(OCC(=O)NCc2ccccc2)nc1	1%
CCOC(=O)C1=CN(CC(=O)Nc2ccccc2Cl)S(=O)(=O)N=C1C	5%
Cn1ccc(NC(=O)C(C)(C)Oc2nn(CC3CC3)c3ccc(CN4CCCC4)cc23)n1	3%[70.6 µM]
Cc1nnsc1C(=O)N[C@H]1CCN2C(=O)N(c3ccc(F)c(Cl)c3)C(=O)[C@@H]2C1	2%[70.6 µM]
O=C(c1cc2c(s1)CCCC2)N1CCc2c(nc3cc(-c4ccccc4)[nH]n3c2=O)C1	0%
CC(C)(C)c1cc(C[C@@H]2CC[C@H](O)[C@@H](CNC(=O)C3CCC3)O2)no1	2%[70.6 µM]
CC(=O)N1CC2(Cc3ccccc3N(C(C)=O)C2)C1	6%[70.6 µM]
CC(C)N1C(=O)C2(CCCC2)C1C(=O)NCCCN1CCCC1 (configuration not stated)	7%
c1cnc2nc(-c3ccsc3)[nH]c2c1	3%[70.6 µM]
CNC(=O)[C@@H]1CN(S(=O)(=O)c2ccc(F)cc2F)C[C@H]1COC	-14%
COc1ccc(NC(=S)N[C@H]2C[C@H]3C(=O)NC[C@@H](CCC(=O)NC4CC4)N3C2)cc1	10%[70.6 µM]
CC(C)Oc1ccc(CNC(=O)C2Cn3cccc3C(=O)N2Cc2cccnc2)cc1 (configuration not stated)	-2%
COc1ccccc1-c1ccnc(N[C@H]2CO[C@H]3[C@@H]2OC[C@@H]3NS(=O)(=O)c2ccc(NC(C)=O)cc2)n1	?
O=C(NC1CCCCC1)C1CN(C(=O)COc2ccc(F)cc2)CC12CCOCC2 (configuration not stated)	1%
O=C1COCC2(CN1Cc1cccc(OC(F)(F)F)c1)CN(C(=O)c1cn[nH]c1)C2	-6%[70.6 µM]
Cc1ccc([S+](=O)([O-])N2CCC3(CCN(Cc4cccs4)c4ccccc4O3)CC2)cc1	17%
Cc1noc(C)c1C(=O)N[C@H]1[C@H](O)[C@H](O)C[C@@H]1c1ccccc1	7%[70.6 µM]
CNC(=O)c1noc([C@@H]2CC(F)(F)CN2Cc2ccc(C)cn2)n1	-11%
CCN(CC)c1cc(CCC(=O)N(C)CCc2ccncc2)ccn1	1%
CN(C)C(=O)c1cc2c(s1)CCC(C(=O)N1CCN(c3ccccc3)CC1)C2 (configuration not stated)	?
O=C(c1ccc(F)cc1)N1CCC2(CC1)CC(=O)N(c1ccccc1)c1ccccc1O2	0%
COc1ccc(-c2ccc(C(=O)N3Cc4[nH]cnc4CC3C(=O)O)o2)cc1 (configuration not stated)	-4%
CCN1C(=O)CCN(CC2CCCCC2)CC12CCOCC2	1%
C[C@H]1[C@@H]2[C@@H](O)C([C@H](C)C(=O)N(C)Cc3cccnc3)CC[C@@]2(C)CC[C@@H]1NC(=O)C1CCCCC1 (some centres not stated)	7%
Cc1cccc(NC(=O)c2cc3n(n2)CC(c2ccc(Cl)cc2)OC3)c1 (configuration not stated)	-21%

As a short view, some entries already given:
SMILES	hNpr1 antagonist
O=C(c1ccc(F)cc1)N1CCC2(CC1)CC(=O)N(c1ccccc1)c1ccccc1O2	0%
COc1ccc(-c2ccc(C(=O)N3Cc4[nH]cnc4CC3C(=O)O)o2)cc1 (configuration not stated)	-4%
CCN1C(=O)CCN(CC2CCCCC2)CC12CCOCC2	1%
C[C@H]1[C@@H]2[C@@H](O)C([C@H](C)C(=O)N(C)Cc3cccnc3)CC[C@@]2(C)CC[C@@H]1NC(=O)C1CCCCC1 (some centres not stated)	7%
Cc1cccc(NC(=O)c2cc3n(n2)CC(c2ccc(Cl)cc2)OC3)c1 (configuration not stated)	-21%

Remaining list, next part
SMILES	hNpr1 antagonist
O=C(c1cc(Cl)ccc1F)N1C[C@@H](CO)[C@H](c2ccncc2)C1	1%
COCCc1noc([C@@H]2CN(C3CCCCC3)C[C@H]2CO)n1	0%
Cc1ccc(-c2nccn3cc(C(=O)NCC(C)C)nc23)cc1	-8%
Cc1ccc2nc(C(NC(=O)C3CCN(CC(N)=O)CC3)C(C)C)[nH]c2c1 (configuration not stated)	-2%
CC(=O)N1CCC(CC(=O)N2CCCCCCN(C)C(=O)[C@@H]3CCC[C@@H]32)CC1	-1%
Cc1cccc(-n2nc(CC(N)=O)nc2-c2ccc(Cn3cccn3)o2)c1C	0%
Nc1ccsc1C(=O)N[C@@H]1COCC[C@@H]1OCc1cscn1	-2%
Cc1nc(C)c(C(=O)NCCc2noc(-c3ccncc3)n2)s1	-23%
O=C(CN1C(=O)NC2(CCOCC2)C1=O)NCCc1ccc(Cl)cc1	-11%
COC[C@H]1NC(=O)CC[C@H]1C(=O)N1CCCCCC1	6%
CC(C)c1ccc(C(=O)N(C)CC2CCOC2)cc1 (configuration not stated)	3%
O=C(O)[C@H]1C[C@H](C(=O)NCc2ccccn2)CN(C(=O)CC2CCCC2)C1	2%
CC1=C[C@@H](CN)[C@H](C(C)C)C[C@H]1Cc1nc2ccccc2[nH]1	-17%[70.6 µM]
CN(Cc1ccc(F)cc1)S(C)(=O)=O	0%[70.6 µM]
COCCCNC(=O)C1c2ccccc2CC(=O)N1Cc1ccccc1 (configuration not stated)	-6%
CN1CCN(C(=O)C[C@@H]2CCNC[C@@H]2Cc2cc(-c3ccc(C(C)(C)C)cc3)on2)CC1	16%
CCC(C)Oc1ccc(CNC(=O)c2cn(CCN)nn2)cc1 (configuration not stated)	3%
O=C(Nc1ccc(F)cc1)c1ccc(Cn2ccn3nc4c(c3c2=O)CCCC4)cc1	0%
Cc1noc(C)c1-c1cc2cc(C(C)C)oc2c(NC2CCOCC2)n1	1%[70.6 µM]
COc1ccc(NC(=O)[C@@H]2C[C@H](c3ccc(F)cc3)N(Cc3csc(C)n3)C2)cc1OC	-3%
O=C1CCC2(CCCO2)CCN1Cc1ccc(F)cc1 (configuration not stated)	-5%
COc1ccc(CN2C=C(C(=O)OCc3nc(Cc4cccc(C)c4)no3)C(C)=NS2(=O)=O)cc1	-2%
COC(=O)[C@H](Cc1ccc(OC)cc1)NC(=O)[C@H]1CN(C(=O)c2cccnc2)CCN1C(=O)NC(C)C	5%
Cn1cc(C(=O)NCC(=O)N2CCCCCNC(=O)CC2c2ccccc2)cn1 (configuration not stated)	1%
Cc1noc(C)c1[S+](=O)([O-])N1CCC2(CC1)C(=NC1CCCC1)NC(=O)N2c1cc(F)cc(F)c1	13%

Next part:
SMILES	hNpr1 antagonist
O=C(NCCN1CCCCC1)c1ccc(-c2ccc(N3CCCCC3)nc2)cc1	-3%
O=C1OC2(CN1CC1CCOCC1)CN(C(=O)c1ccc(Oc3ccccc3)cc1)C2	-21%[70.6 µM]
COc1ccccc1N1CCN(C(=O)CC[C@H]2NC(=O)c3ccccc3NC2=O)CC1	4%
Cc1cc(C(=O)N2CCC[C@H](n3c(=O)n(CC4CC4)c4cccnc43)C2)n(C)n1	-8%
CCOc1ccc2c(n1)CCN(C(=O)Cc1c[nH]c3ccccc13)C2	-2%
CC(C)C(=O)N1[C@@H]2CC[C@H]1CC(NC(=O)c1ccncc1)C2 (some centres not stated)	7%
COC(=O)C1=C(C)N=C2SC=C(CC(=O)NCC3CCCO3)N2C1c1ccc(C)cc1C (configuration not stated)	?
Cc1cn2nc(C(=O)NCc3cccc(C(F)(F)F)c3)cc2c(N2CCSCC2)n1	-16%
CCN1c2cc(C(=O)N3CCSCC3)ccc2C(=O)N2CCCCCC21 (configuration not stated)	0%
CN1CCCCC(CC(=O)Nc2ccc(OC(F)(F)F)cc2)C1=O (configuration not stated)	-1%
Cn1nnc(-c2cccc(NC(=O)C[C@H]3NC(=O)c4ccccc4NC3=O)c2)n1	-9%
O=C(c1ccc(N2CC3CC(C2)[C@H]2CCCC(=O)N2C3)nc1)N1CCN(C2CCCCC2)CC1 (some centres not stated)	-2%
Cn1cc(-c2ccccc2Oc2ccccc2)c2nc(CN3CCOCC3)cn2c1=O	1%[70.6 µM]
CC(C)CNC(=O)CC1Sc2ncccc2N(CC(C)C)C1=O (configuration not stated)	1%
CC(CCn1cccn1)NC(=O)c1csc2nc(-c3ccc(C(F)(F)F)cc3)cn12 (configuration not stated)	-27%
CCC1=C(C(=O)OC)C(c2cccc(C)c2)N2C(CC(=O)Nc3ccc(OC)cc3)=CSC2=N1 (configuration not stated)	-13%
O=C(c1cccc(F)c1)N1CCC(Oc2ccccc2-c2nc(C3CCOCC3)no2)C1 (configuration not stated)	-14%
OCC1CN(Cc2nccs2)CCC12CCN(Cc1cnc[nH]1)CC2 (configuration not stated)	4%
COc1ccc(Cl)cc1-n1nc(C2CC2)nc1C(C)Cn1cncn1 (configuration not stated)	1%
CCCCNC(=O)Cc1csc2nc(C)c(-c3cc(C)n(-c4cccc(Cl)c4)n3)c(=O)n12	1%
CC(C)CC(=O)NCC(=O)N1CCN(c2ccccn2)CC1	4%
C=CCNC(=O)C(NC(=O)c1ccc(OC)cc1)C1CCN(C(=O)c2cccc(F)c2)CC1 (configuration not stated)	0%
COc1ccc(NC(=O)[C@@H]2C[C@H](c3ccc(F)cc3)N(Cc3csc(C)n3)C2)c(C)c1	11%[70.6 µM]
CN(CC(=O)N1CCCC(CCc2ccc(F)cc2)C1)C1CCNCC1 (configuration not stated)	-1%
Cc1ccc(C2Cn3nnc(C(=O)N4CCN(C(=O)c5cccc(Cl)c5)CC4)c3CO2)cc1 (configuration not stated)	?

Molecules from the list above containing a CF3 group (four):
SMILES	hNpr1 antagonist
O=C1COCC2(CN1Cc1cccc(OC(F)(F)F)c1)CN(C(=O)c1cn[nH]c1)C2	-6%[70.6 µM]
Cc1cn2nc(C(=O)NCc3cccc(C(F)(F)F)c3)cc2c(N2CCSCC2)n1	-16%
CN1CCCCC(CC(=O)Nc2ccc(OC(F)(F)F)cc2)C1=O (configuration not stated)	-1%
CC(CCn1cccn1)NC(=O)c1csc2nc(-c3ccc(C(F)(F)F)cc3)cn12 (configuration not stated)	-27%

The listing continues:
SMILES	hNpr1 antagonist
Cc1nc2c(c(-c3ccc(O)cc3)n1)CN(Cc1ccnn1C)CC2	10%
COCCN1CCC2(CCC1=O)CCN(C(=O)c1ccc(Cc3c(C)noc3C)o1)CC2	1%
Cc1nccn1CCC1CCN(C(=O)C2CC(=O)N(C3CC3)C2)CC1 (configuration not stated)	5%
COCc1ccc2c(c1)c(OC(C)(C)C(=O)NC1CCC(O)CC1)nn2CCC(C)C (configuration not stated)	-5%[70.6 µM]
Cc1ccc(CN2C(=O)OC(c3cccc(NC(=O)C(C)C)c3)C2C(=O)NCc2ccco2)cc1 (configuration not stated)	-5%
COCCn1ncc(N2CCCC(CC(=O)N3CC=C(c4ccccc4)CC3)C2)cc1=O (configuration not stated)	-17%
OCc1cc(CC2(NCc3ccc(CO)o3)COC2)no1	9%[70.6 µM]
CCN(Cc1cccc2cnccc12)CC1CCCN(CCc2cccc(F)c2)C1 (configuration not stated)	?
CC(C)(C)c1ccc(NC(=O)O[C@@H]2CO[C@H]3[C@@H]2OC[C@@H]3Nc2nccc(-c3cccc(F)c3)n2)cc1	-18%
COCCCNc1ncc(C(=O)O)c(-c2ccccc2)n1	-10%
COc1ccc(CN2CCCOC(CN3CCCCC3)C2)cc1C(=O)O (configuration not stated)	0%
O=C(NC1CCCCCC1)c1ccc2c(c1)CC(=O)N2Cc1ccc(F)cc1	3%
COc1ccc(N2CC3(COCC2=O)CN(c2ccc(C(F)(F)F)cn2)C3)cn1	1%[70.6 µM]
O=C(c1cccs1)N1CCn2c(nnc2[C@@H]2C[C@@H](O)CN2Cc2ccccc2)C1	-2%
CC(C)NC(=O)C[C@@H]1C[C@H]2O[C@H](CNC(=O)NC3CCC3)[C@@H](O)[C@H]2O1	6%[70.6 µM]
O=C(c1ccoc1)N1CCN(C(=O)c2nnn3c2COC(c2ccccc2)C3)CC1 (configuration not stated)	3%
COc1ccc(C(=O)N2CCOC[C@H](Oc3ccc(C(F)(F)F)cn3)C2)cc1	0%[70.6 µM]
CCn1cnnc1-c1nn(C)c2c1CNCC2	0%
CN1CCN(Cc2nc(C3(O)CCN(C(=O)C4CCCCC4)CC3)cs2)CC1	3%[70.6 µM]
COc1cccc(-c2noc(NCc3cccc(Cl)c3)n2)c1OC	-5%
Cc1ccc(NC(=O)CN2C(=O)NC3(CCC(C)CC3)C2=O)cc1Cl (configuration not stated)	-2%
CC(=O)c1c(C)nn(CC(=O)NCc2c(C)ncc3c2CCNC3)c1C	3%
CN1CCN(c2cc(-c3ccc(F)cc3C(F)(F)F)nc(N)n2)CC1	-3%
COC(=O)CNC(=O)N1CCC2(CC1)CC(Cc1ccc(OC)cc1)CCO2 (configuration not stated)	4%
CC(C)c1ccc(CN2CC(CNC(=O)C3CCOCC3)C3(C2)CN(c2ccccc2)C3)cc1 (configuration not stated)	-7%

Later entries.
SMILES	hNpr1 antagonist
CCOc1ccccc1C(=O)N1[C@@H]2CC[C@H]1CC(NC(=O)c1ccncc1)C2 (some centres not stated)	-2%
COc1ccc2cc1Nc1ccc(cc1)C[C@H](NCC1CC1)C(=O)N(C)[C@@H](C(=O)Nc1ccccc1)C2	1%
CN1C[C@@H](NC(=O)CC(C)(C)C)C[C@H]1c1nc(-c2ccc(OC(F)(F)F)cc2)no1	-28%[70.6 µM]
O=C(CC[C@@H]1CNC(=O)[C@@H]2C[C@H](NC(=O)Nc3ccccc3)CN12)NCc1ccccc1	3%
CCN(CC)C(=O)N1CCCCC1c1noc(COc2ccc(F)cc2)n1 (configuration not stated)	5%
O=C(Cc1noc2ccccc12)N[C@H](C1CCNCC1)C1CC(O)C1 (some centres not stated)	-1%
COc1ccc(CN2CCC(n3cc[nH]c3=O)CC2)cc1	5%[70.6 µM]

Screening data: PubChem, National Center for Advancing Translational Sciences (NCATS)
